Bioassay records from PubChem BioAssay.
Marburg entry: blocks Marburg virus binding or cell entry; Marburg virus pseudotype entry/binding inhibition, cell-based; control for the full effect not named in the record; many of its hits are not listed in these tables; Potency, µM (highest dose often 49.2 µM), for the others: at the highest dose activity change, negative = inhibition, hits mostly inhibitors; 18,000 tested, 6.5% active; AID 720532; active means well fitted inhibition curve with a large enough effect; inconclusive means small, poorly fitted or top-dose-only effect; inactive means no such curve, though single readings can be large or run the other way; tested in HEK293 cells; note: luciferase read-out
LASV entry inh: Lassa virus entry inhibition. Lassa virus pseudotyped entry inhibition, cell-based qHTS; control for the full effect not named in the record; many of its hits are not listed in these tables. 18,000 tested, 4.1% active. Potency, µM (highest dose often 49.2 µM), for inactives: top-dose activity change, negative = inhibition, usual class: inhibitors; active = well fitted inhibition curve with a large enough effect; inconclusive = small, poorly fitted or top-dose-only effect; inactive = no such curve, though single readings can be large or run the other way; tested in HEK293 cells; note: luciferase read-out
* marks the source's active call; other numbers are inactive results; ? = inconclusive; / = not tested or not shown; & = joins results of further samples; [ ] = dose if it differs, or a comment. % is set by controls: 0 for no effect and ±100 for the full control effect; potency is the fitted concentration of half-maximal effect.

Sample of the layout, two compounds:
SMILES	Marburg entry	LASV entry inh
O[C@@H](c1ccccc1)C1CCN(CCc2ccccc2)CC1	?	0%
O=C(O)c1nc(=O)[nH]c(=O)[nH]1	7%	?

All compounds of this part, from the first entry:
SMILES	Marburg entry	LASV entry inh
O[C@@H](c1ccccc1)C1CCN(CCc2ccccc2)CC1	?	0%
O=C(O)c1nc(=O)[nH]c(=O)[nH]1	7%	?
O=C(c1cccc(Cn2cccn2)c1)N1CCOc2c(cc(-c3csc4ccccc34)cc2OC2CCOC2)C1 (configuration not stated)	?	?
C[C@@H]1CC[C@H]2C(=O)N3[C@@H](CC[C@@H](C)[C@@H]3c3ccc(-c4ccco4)cc3)C(=O)N2[C@@H]1c1ccc(-c2ccco2)cc1	-2%[8.59 µM]	-1%[8.59 µM]
CCCOc1ccc2nc(NC(=O)OC)sc2c1	17%	3.2µM*
C=CCN1CCc2cccc3c2C1Cc1ccc(O)c(O)c1-3 (configuration not stated)	?	?
CC(=O)Nc1c(I)c(C(=O)O)c(I)c(N(C)C(C)=O)c1I	27%	-6%
C[Se]CCC(N)C(=O)O (configuration not stated)	21%	3%
O=C1CC2(CCCC2)CC(=O)N1CCCCNC[C@H]1COc2ccccc2O1	-4%	6%
CCC1(C2CCN(C(=O)c3cc(C)cc(C)c3)CC2)NC(=O)N(CCc2scnc2C)C1=O (configuration not stated)	3%	-6%
CC(C)(C)C(=O)OCOC(=O)C1N2C(=O)CC2S(=O)(=O)C1(C)C (configuration not stated)	13%	-6%
CCCCCc1c2c(cc(O)c1C(=O)O)OC(=O)c1cc(C(=O)CCCC)c(OC)cc1O2	13%	-2%
C[C@@H]1C[C@@H](O)[C@@]2(O)[C@]13CC(=O)OC[C@]2(C)[C@@](C)(O)C(=O)C3	6%	8%
COc1ccc(N2C[C@H](CSC)[C@@H](CC(=O)Nc3ccccc3)C2=O)cc1	9%	28%
N[C@](CC1c2ccccc2Oc2ccccc21)(C(=O)O)[C@H]1C[C@@H]1C(=O)O	0%	21%
CCN1C(=O)N[C@@H](c2ccc(Br)cc2)C(C(=O)OC)=C1C	-15%	-4%
COc1ccccc1C1CN(Cc2c(C)nc3sccn23)Cc2ccccc2O1 (configuration not stated)	-10%	-12%
C=C1C/C(=C/C)C(=O)O[C@@H]2CCN3CC=C(COC(=O)[C@]1(C)O)[C@@H]23	-1%	?
CC(C)=CCCC1(C)C=Cc2c(c(C)cc3c2[nH]c2ccccc23)O1 (configuration not stated)	?	-6%
CN1CCN(C(=O)OC2c3nccnc3C(=O)N2c2ccc(Cl)cn2)CC1 (configuration not stated)	-15%&-8%	-2%&-7%
Cc1c(O)cc2c(c1C)O[C@](C)(CCC[C@H](C)CCC[C@H](C)CCCC(C)C)CC2	-10%	0%
Cc1ncc2c(c1CNC(=O)/C=C/c1cccs1)CCN(C(=O)C1CC(=O)OC13CCCCC3)C2 (configuration not stated)	-14%	-12%
COc1ccc(CNC(=O)c2ccc(Br)o2)cc1	32%[activator]	-6%
Cc1noc(C)c1-c1nc(N2CCOCC2)c2ccccc2n1	5%	-2%
CC1C(=O)N(Cc2cn(Cc3ccco3)nn2)CCS(=O)(=O)N1Cc1ccc(-c2ccc(F)cc2Cl)cc1 (configuration not stated)	?	-22%

(cont.)
SMILES	Marburg entry	LASV entry inh
Nc1nc2c(ncn2C2CC(O)C(CO)O2)c(=O)[nH]1 (configuration not stated)	1%	-2%
CCCCc1cc2c(=O)c(C(=O)OC)c[nH]c2cc1OCc1ccccc1	-2%	-7%
CC(=O)Nc1c(N)[nH]c(=O)n(C)c1=O	-3%	4%
CSCC[C@H](NC(=O)[C@H](Cc1ccccc1)NC(=O)[C@H](Cc1cnc[nH]1)NC(=O)CNC(=O)[C@@H](NC(=O)[C@H](C)NC(=O)[C@H](Cc1c[nH]c2ccccc12)NC(=O)[C@H](CC(C)C)NC(=O)[C@H](CC(N)=O)NC(=O)CN)[C@@H](C)O)C(N)=O	6%	6%
CCCCC[C@H](O)CC[C@H]1[C@H](O)CC(=O)[C@@H]1CCCCCCC(=O)O	5%&0%	-5%&-5%
COc1ccccc1[C@H]1C(c2cccc(Cl)c2)=NN(c2ccccc2)[C@@H]1CO	-33%	?
OC1CCC2Cc3ccccc3N=C12 (configuration not stated)	-14%	-12%
CC(=O)Nc1cc2ccccc2oc1=O	30%[activator][17.8 µM]	1%[17.8 µM]
COc1ccccc1CNC(=O)c1ccc(-c2ccccc2C(F)(F)F)o1	13%	/
C[C@@](N)(C(=O)O)c1cccc(CC(=O)O)c1	9%	-6%
CCC(COC)NC(=O)c1cnn(-c2ncc3c(n2)-c2ccccc2CCC3)c1C (configuration not stated)	5%	-18%
C[C@@H]1C(=O)OC2C[C@@]34[C@H]5C[C@@H](C(C)(C)C)[C@@]36C(O)C(=O)O[C@H]6O[C@@]4(C(=O)O5)[C@]21O (some centres not stated)	-1%	-12%
COc1c(-c2ccc(O)c(O)c2)oc2cc(O)cc(O)c2c1=O	10%	-3%
C=CCC(C)(O)C(=O)OCC (configuration not stated)	0%	-7%
C[C@H]1COC(=O)O1	13%	3%
COC(=O)[C@H](Cc1ccccc1)NC(=O)[C@@H](N)CC(=O)O	22%&5%	3%&-13%
CC(C)C[C@@H](CC(=O)N[C@@H](CCC(=O)O)CC(=O)O)NC(=O)[C@@H]1CNCC[C@H]1NC(=O)C[C@@H](NC(=O)C[C@H](CO)NC(=O)[C@@H]1CCCC[C@H]1N)C(C)C	-19%	-10%
CC/C=C\C[C@@H](/C=C/C=C\C/C=C\C/C=C\CCCC(=O)O)OO	-5%	2%
CC(=O)OC[C@H]1O[C@H](C#Cc2ccccc2)C=C[C@H]1O	-3%[8.59 µM]	5%[8.59 µM]
O=C(/C=C(\O)c1ccccc1)c1ccccc1O	-9%	-10%
COc1ccccc1/C=C\C(=O)O	7%	4%
N#Cc1ccc2c(c1)C[C@]1(c3ccsc3)Oc3c(c(=O)oc4ccccc34)[C@H]2O1	5%[8.59 µM]	5%[8.59 µM]
CCCCCC(=O)N1C[C@H](n2cc(C3CC3)nn2)[C@@H](O)C[C@H]1c1ccc(Cl)cc1	-13%	?
CCOC(=O)OCC/C(SC(=O)OCC)=C(\C)N(C=O)Cc1cnc(C)nc1N	-3%	-24%
CC[C@@H]1C(c2ccc(F)cc2)=NN(c2ccccc2)[C@H]1C(=O)N1CCOC1=O	-9%	?

New compounds follow
SMILES	Marburg entry	LASV entry inh
Cc1cccc(C2=NN(c3ccc(Br)cc3)[C@@H](C(=O)N3CCOC3=O)[C@@H]2c2ccccc2)c1	-21%	-9%
C[C@H](CCC(=O)O)[C@H]1CC[C@H]2[C@@H]3C(=O)C[C@@H]4CC(=O)CC[C@]4(C)[C@H]3CC(=O)[C@]12C	-22%	-4%
CCOC(=O)c1cccnc1	22%	-19%
O=C(NC1CC1)c1ccc(NC(=O)C2CCC2)cc1	19%	20%
CC(O)(COc1ccccc1)c1ccc2c(c1)CN(Cc1cccc3ncccc13)CCO2 (configuration not stated)	-18%	-11%
CCOc1nc2cccc(C(=O)OC(C)OC(=O)OC3CCCCC3)c2n1Cc1ccc(-c2ccccc2-c2nn[nH]n2)cc1 (configuration not stated)	-2%	?
Cc1ccc2[nH]c(C(=O)NCc3nc(-c4cccc(NC(=O)c5cc(C)oc5C)c4)oc3C)cc2c1	?	-10%
COC1=C(C(=O)c2ccccc2)C(=O)[C@@]2(CC=C(C)C)CC(C#N)C[C@@]1(CC=C(C)C)C2=O (some centres not stated)	-16%[8.59 µM]	?
O=C1Nc2ccccc2C(=O)N2CCC[C@@H]12	-5%	-4%
C=CCC(C)(O)c1ccc(OC)cc1 (configuration not stated)	7%	-8%
CC1(C)S[C@H]2[C@@H](N)C(=O)N2[C@H]1C(=O)O	9%	10%
NCCNS(=O)(=O)c1ccc(Cl)c2ccncc12	-5%	19%
COc1ccc(F)c(CN2CCC3(CCC(CNC(=O)c4cc(C)nn4C)O3)CC2)c1 (configuration not stated)	-11%	-4%
Cc1cc(OC(=O)N(C)C)nn1C(=O)N(C)C	-13%	-2%
CS(=O)(=O)CCNCc1cc(-c2cc3c(Nc4ccc(OCc5cccc(F)c5)c(Cl)c4)ncnc3s2)cs1	?	-69%
O=[N+]([O-])c1cccc(COc2cccc(CO)c2)c1	10%	10%
CC(=O)c1cc(C)c(OCc2cn(CC(=O)c3ccc(O)cc3)nn2)c(C)c1	?	-11%
Cc1ccc(C(=O)NC2CC2)cc1-c1ccc2[nH]ncc2c1	-9%	/
Cc1ccc(C(C)(C)c2ccc(C)cc2)cc1	14%	-14%
CCCCC[C@H](O)C=C[C@H]1[C@H](O)CC(=O)[C@H]1CCCCCCC(=O)O	5%	-1%
CCC1CN(CCNC(=O)c2ccc(N3CCOCC3)cc2)Cc2cc(OC)ccc2O1 (configuration not stated)	-4%	-4%
COCCN1C(=O)C2=C(C1=O)C1N(C)c3ccccc3[C@@]13C[C@@H](CO)N(S(=O)(=O)c1ccc(OC)cc1)C3=N2 (some centres not stated)	-3%[8.59 µM]	-1%[8.59 µM]
CC[C@@H](C)[C@@H](N)C1=N[C@H](C(=O)N[C@@H](CC(C)C)C(=O)N[C@@H](CCC(=O)O)C(=O)N[C@@H](C(=O)N[C@@H]2CCCCNC(=O)[C@@H](CC(N)=O)NC(=O)[C@@H](CC(=O)O)NC(=O)[C@@H](Cc3cnc[nH]3)NC(=O)[C@@H](Cc3ccccc3)NC(=O)[C@@H]([C@H](C)CC)NC(=O)[C@@H](CCCN)NC2=O)[C@@H](C)CC)CS1	-9%	-12%
c1ccc(CN2CCC3(CCc4ccccc43)CC2)cc1	?	-11%&-7%
COc1ccc2c(c1)-c1nc(-n3ncc(C(=O)N(C)CCO)c3C3CC3)ncc1CC2	45%[activator]	8%

Brought forward from above: three entries; new compounds follow.
SMILES	Marburg entry	LASV entry inh
CC[C@@H](C)[C@@H](N)C1=N[C@H](C(=O)N[C@@H](CC(C)C)C(=O)N[C@@H](CCC(=O)O)C(=O)N[C@@H](C(=O)N[C@@H]2CCCCNC(=O)[C@@H](CC(N)=O)NC(=O)[C@@H](CC(=O)O)NC(=O)[C@@H](Cc3cnc[nH]3)NC(=O)[C@@H](Cc3ccccc3)NC(=O)[C@@H]([C@H](C)CC)NC(=O)[C@@H](CCCN)NC2=O)[C@@H](C)CC)CS1	-9%	-12%
c1ccc(CN2CCC3(CCc4ccccc43)CC2)cc1	?	-11%&-7%
COc1ccc2c(c1)-c1nc(-n3ncc(C(=O)N(C)CCO)c3C3CC3)ncc1CC2	45%[activator]	8%
COc1ccc(CCCOC(Cn2ccnc2)c2ccc(OC)cc2)cc1 (configuration not stated)	?	?
O=S1(=O)C=CCN1C1CCCC1	30%	8%
COc1ccc(-c2nc(-c3ccccc3)c(Nc3c(C)cccc3C)o2)cc1	?	12%
C=CCN=C1N[C@@H](c2ccccc2)[C@H](C(=O)OC)[C@@H](C)N1CC	-25%[8.59 µM]	5%[8.59 µM]
COC(=O)c1ccc2c(c1)c(C#Cc1ccccc1)c(-c1ccccc1)n2C	24%	5%
COc1ccc(C2/C=C\CC(OCc3ccccc3)CC(=O)N2Cc2cccc(F)c2)cc1 (configuration not stated)	-20%	?
N[C@@H](CCS(=O)O)C(=O)O	-26%&6%	7%&15%
O=C(OC1CNC(C#Cc2cc3ncnc(Nc4ccc(OCc5cccc(F)c5)c(Cl)c4)c3s2)C1)N1CCOCC1 (configuration not stated)	13µM*	?
CCC1C(=O)NCCN1Cc1ccc2c(c1)CN(Cc1ccc(F)c(OC)c1)CCO2 (configuration not stated)	-19%	-2%
COC(=O)[C@@H](NC(=O)O[C@@H]1C(=O)c2ccc(OC)cc2O[C@H]1c1cccc(C(F)(F)F)c1)C(C)C	-19%	-18%
COc1ccc(-c2coc3cc(OC4OC(CO)C(O)C(O)C4O)cc(O)c3c2=O)cc1 (configuration not stated)	51%[activator]	-5%
CO/C1=C\C(C)=C\[C@@H](C)[C@@H](O)[C@H](C)C/C(C)=C/C=C/[C@H](OC)[C@H]([C@@H](C)[C@@H](O)[C@H](C)[C@H]2C[C@@H](O)[C@H](C)[C@@H](C(C)C)O2)OC1=O	?	?
c1cc2c(c(N3CCNCC3)c1)OCCO2	-22%	-4%
CCOC(=O)N1CCN(C(=O)c2ccc(-c3ccccc3OC)nc2N2CCC(N3CCCC(CO)C3)CC2)CC1 (configuration not stated)	-10%	0%
OCC1OC(n2cnc3cc(Cl)c(Cl)cc32)C(O)C1O (configuration not stated)	-14%&-10%	-3%&-2%
COc1ccc(-c2ccc(CN3C(CC(C)C)C(=O)N(Cc4cn(CC5CCCCC5)nn4)CCS3(=O)=O)cc2)cc1 (configuration not stated)	?	/
COc1cccc(Cc2nc3cccnc3n2C2CCN(Cc3ccc(C)s3)CC2)c1	2%	-13%
CCCCCC(=O)N1C[C@H](n2cc(-c3ccc(F)cc3)nn2)[C@@H](O)C[C@H]1c1ccc(C)cc1	-21%	-5%
CCCC(=O)OC[C@H]1CN([C@H](C)c2ccccc2)S(=O)(=O)c2c(F)cccc2O1	46%	2%
CC(NC(=O)c1ccco1)c1nnc2n1CCN(Cc1cccc(Cl)c1)CC2 (configuration not stated)	-10%	-13%

Molecules listed so far with a CF3 group, in the order listed:
SMILES	Marburg entry	LASV entry inh
COc1ccccc1CNC(=O)c1ccc(-c2ccccc2C(F)(F)F)o1	13%	/
COC(=O)[C@@H](NC(=O)O[C@@H]1C(=O)c2ccc(OC)cc2O[C@H]1c1cccc(C(F)(F)F)c1)C(C)C	-19%	-18%

Reprinted at random: two compounds from above.
SMILES	Marburg entry	LASV entry inh
COc1ccc(-c2coc3cc(OC4OC(CO)C(O)C(O)C4O)cc(O)c3c2=O)cc1 (configuration not stated)	51%[activator]	-5%
O=S1(=O)C=CCN1C1CCCC1	30%	8%

These rows are one share of the data. The share of hits here may be higher or lower than overall.
